Source: PubChem BioAssay
KCNQ2 inh – KCNQ2 potassium channel inhibitors, primary screen, cell-based, CHO-K1, FluxOR thallium flux, B-score (AID 2156); B-score at 10 µM; 20 min; active compounds read low; only compounds with negative scores are shown here; some inactives read as strong as hits; 310,000 compounds, 1.1% hits; O88943;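 active means fluorescence ratio B-score at most minus 3 library SDs, with starting brightness B-score within 2 library SDs, cut at about -5.5 in these data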
Target sequence (O88943 whole entry, looked up): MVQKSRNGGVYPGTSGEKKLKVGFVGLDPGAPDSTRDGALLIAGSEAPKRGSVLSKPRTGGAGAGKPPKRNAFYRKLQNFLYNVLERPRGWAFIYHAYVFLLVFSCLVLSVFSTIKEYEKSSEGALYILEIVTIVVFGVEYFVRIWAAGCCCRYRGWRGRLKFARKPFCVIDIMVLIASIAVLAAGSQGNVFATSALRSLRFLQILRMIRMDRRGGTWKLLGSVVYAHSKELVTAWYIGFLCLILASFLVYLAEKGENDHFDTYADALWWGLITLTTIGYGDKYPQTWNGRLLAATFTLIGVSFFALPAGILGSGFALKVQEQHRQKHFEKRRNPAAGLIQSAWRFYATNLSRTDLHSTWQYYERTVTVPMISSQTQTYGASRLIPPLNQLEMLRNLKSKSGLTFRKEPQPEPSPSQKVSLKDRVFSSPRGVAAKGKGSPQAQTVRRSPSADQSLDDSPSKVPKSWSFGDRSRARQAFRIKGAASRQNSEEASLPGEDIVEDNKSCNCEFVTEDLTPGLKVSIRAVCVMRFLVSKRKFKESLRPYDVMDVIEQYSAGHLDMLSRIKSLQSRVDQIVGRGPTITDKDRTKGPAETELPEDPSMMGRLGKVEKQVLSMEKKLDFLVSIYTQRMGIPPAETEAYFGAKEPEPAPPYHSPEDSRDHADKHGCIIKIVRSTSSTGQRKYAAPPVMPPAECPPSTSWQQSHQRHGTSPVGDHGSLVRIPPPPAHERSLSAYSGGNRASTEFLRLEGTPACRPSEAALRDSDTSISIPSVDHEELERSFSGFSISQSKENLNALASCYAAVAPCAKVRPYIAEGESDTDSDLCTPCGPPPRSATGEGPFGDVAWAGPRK
KCNQ2 inh baseline – second read-out of KCNQ2 inh, no call of its own (marks repeat the call); B-score; measured here: initial fluorescence intensity artifact check;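 brightness before thallium and not channel activity; 0 = typical well and far values either way flag optical interference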
Starred values were filed as active, the others as inactive; i = inactive.

KCNQ2 inh | KCNQ2 inh baseline | SMILES
i | 0.52 | CC(NC(=O)C1CCN(S(=O)(=O)c2ccc3c(c2)NC(=O)CO3)CC1)c1ccccc1 (configuration not stated)
i | 0.11 | Cn1c(NC(=O)c2ccccc2)cc(=O)n(C)c1=O
i | -0.05 | Cc1ccnc(NC(=O)c2cccc(S(=O)(=O)N3CCOCC3)c2)c1
i | 0.33 | COc1ccc(N2C(=O)CC(NCC#N)C2=O)cc1 (configuration not stated)
i | 1 | CC(C)NC(=O)/C=C/C(=O)O
i | 0.05 | COc1ccc(C(=O)/C=C/c2ccccc2C(F)(F)F)cc1
i | 1.74 | O=C(NCCO)C(=O)NCC1OCCCN1S(=O)(=O)c1ccc2c(c1)OCCO2 (configuration not stated)
i | -0.09 | Cc1cc(C)c(S(=O)(=O)c2ccc(Cl)cc2)c(Cl)n1
i | 0.72 | O=C(Nc1ccccc1C(=O)N1CCOCC1)c1ccc(CSc2ccccc2)cc1
i | -0.09 | CCOc1cc(/C=N/N=C(\N)c2nonc2N)cc(Br)c1OCc1cccc2ccccc12
i | -0.2 | CC(CCc1ccccc1)NS(=O)(=O)c1ccc(Cl)c(C(=O)O)c1 (configuration not stated)
i | -0.51 | Oc1ccc(/C(Cc2ccc3ccccc3n2)=N\Nc2ccccc2)c(O)c1
i | 0.51 | COc1ccc(/C=N/NC(=O)c2c(C)nc3ccc(Cl)cn23)cc1OC
i | -0.67 | CCCCOc1ccc(CNC(=O)NS(=O)(=O)c2ccc(OCC(C)C)cc2)cc1
i | -0.87 | CCOC(=O)C1CCN(S(=O)(=O)c2ccc(Cl)s2)CC1
i | 1.44 | CC(=O)NNC1=Nc2ccccc2N(C)C(C)C1 (configuration not stated)
i | 1.65 | Cc1ccc(CNC(=O)CSCC(=O)O)cc1
i | 0.56 | CC(SCc1ccccc1)C(=O)N/N=C/c1cc2c(cc1Br)OCO2 (configuration not stated)
i | -0.57 | Cc1ccccc1-c1nc(CS(=O)(=O)CC(=O)NCCc2ccccc2)c(C)o1
i | 0.71 | Cc1ccc(NC(=O)Cn2ccsc2=N)c([N+](=O)[O-])c1
i | 1.03 | CC(C)n1cnc2c(N(C)c3ccccc3)nc(N(CCN(C)C)Cc3ccccc3)nc21
i | 0.52 | COc1cccc(CNC(=O)Cc2ccc(-c3ccccc3)cc2)c1
i | -1.6 | CC(C)N=C1NN=C(c2cccs2)CS1
i | 2.92 | CCCC(CCC)=NNC(=O)c1ccccc1F
i | 0.44 | Cc1ccccc1C(=O)NNC(=O)c1ccc2nc[nH]c2c1
i | 0.52 | O=C(NC1CCN(C(=O)c2cccs2)CC1)c1ccccc1
i | 0.82 | CN1CCN(c2ccc(NC(=O)c3ccc(-c4ccc(Br)cc4)o3)cc2)CC1
i | -0.06 | C/C(=N\O)C(=O)NCCN1CCCCC1
i | 0.48 | CC(CN1C(C)CCCC1C)OC(=O)c1cccc(F)c1 (configuration not stated)
i | 0.32 | CSc1nncn1/N=C/c1ccc2c(c1)OCO2
i | 0.13 | Cc1onc(-c2ccccc2Cl)c1C(=O)Nc1ccc(N2CCOCC2)cc1
i | -0.81 | O=C(NCC1CCCO1)c1nnc(Cc2ccc(F)cc2)o1 (configuration not stated)
i | -0.44 | O=S(=O)(NCc1cn2ccccc2n1)c1ccccc1F
i | -0.4 | CCOC(=O)C1CCN(C(=O)C2c3ccccc3C(=O)N(C)C2c2ccc(OC)cc2)CC1 (configuration not stated)
i | -0.01 | CC1CCN(c2ccc(C(=O)O)cc2NS(=O)(=O)c2ccc(Br)cc2)CC1
i | 1.56 | N#Cc1ccc(C23CC4(C2)[C@H](CN(CC2CCCCC2)[C@@H]4c2ccccc2)C3c2ccc(C(F)(F)F)cc2)cc1 (some centres not stated)
i | -2.25 | O=C(O)CC1(CC(=O)N2CCOCC2)CCCC1
i | -0.43 | CCC(C)(C)NC(=O)CN(C(=O)c1ccc(N2CCCC2)nc1)c1ccc(F)cc1
i | 0.01 | CC(=O)c1ccc(N2CCN(C(=O)c3ccc(NC4=NC5CS(=O)(=O)CC5S4)cc3)CC2)cc1 (configuration not stated)
i | 0.21 | Cc1ccc(Cn2c(CCCO)nc3ccccc32)cc1
i | 0.33 | NC(=O)CC(NSc1ccccc1[N+](=O)[O-])C(=O)O (configuration not stated)
i | 0.72 | CN(C)c1ccc(C(=S)N2CCN(C(=S)Nc3ccc(Cl)cc3)CC2)cc1
i | -0.84 | O=C(c1sc2cc(F)ccc2c1Cl)N1CCN(c2cccc(Cl)c2)CC1
i | -0.38 | O=C(CCCN1C(=O)c2ccccc2C1=O)NCCCn1ccnc1
i | 0.11 | COc1ccc(CN2CCN(Cc3ccco3)CC2)cc1OC
i | 0.14 | O=C(NCCc1nc2ccccc2[nH]1)/C(=C/c1ccco1)NC(=O)c1ccc(Br)o1
i | 0.18 | O=C(CCC1CCCN(Cc2cccc3c2OCO3)C1)NCc1ccc(F)c(F)c1 (configuration not stated)
i | 1.89 | O=C(CCc1nc2ccccc2s1)OCC(=O)c1ccccc1
i | -2.15 | N#Cc1ccc(-c2ccc3c(c2)OCO3)nc1SCC(=O)OCc1ccccc1
i | 0.32 | CC1(C)Cc2c(sc(NC(=O)COc3ccc(Cl)cc3)c2C#N)C(C)(C)N1
i | 2 | CCN(CC)C1CCN(Cc2cn[nH]c2-c2ccc(OC)c(F)c2)C1 (configuration not stated)
i | -0.01 | C=C(C)CSc1nnc(-c2cccc(S(=O)(=O)N(C)C)c2)n1-c1cc(OC)ccc1OC
i | -1.44 | CCN(C(=O)c1cnc(NC(C)C)cc1C(F)(F)F)c1ccc(Cl)cc1
i | -1.62 | COCCCN1C(=O)C(=O)/C(=C(/O)c2ccc(S(=O)(=O)N3CCOCC3)cc2)C1c1cccc(Cl)c1 (configuration not stated)
i | -0.13 | Cc1cc(CNCc2c(C(=O)N(C)Cc3ccccc3)nc3ccccn23)nn1C
i | 2.09 | CCOc1ccc(N(CC(=O)Nc2cccc(F)c2)S(=O)(=O)c2c(C)noc2C)cc1
i | -0.71 | CN1CCN(c2cc(C(F)(F)F)nc3ccc(F)cc23)CC1
i | 0.38 | O=C(Nc1ccc2c(c1)CCC2)c1ccc(Br)s1
i | -0.08 | Cc1ccccc1C(=O)N1CCC(C(=O)Nc2ccccn2)CC1
i | 0.49 | O=c1oc2ccc3ccccc3c2cc1-c1nnc(-c2ccccc2)o1

The list goes on:
KCNQ2 inh | KCNQ2 inh baseline | SMILES
i | -0.9 | COCCn1c(=NC(=O)c2ccc3c(c2)OCO3)c(C#N)cc2c(=O)n3cccc(C)c3nc21
i | 0.52 | COc1cc(C(CCN2CCCC(C)C2)c2c(OC)cc(OC)c3c2OC(=O)CC3c2ccc(N(C)C)cc2)cc(OC)c1OC (configuration not stated)
i | -0.79 | C=C(C)COc1ccc(-c2n[nH]c(C)c2-c2ccc(OC)c(OC)c2)c(O)c1
-6.46* | -2.07* | Cc1cc(Br)ccc1NC(=O)CN(C)C(=O)c1cc([N+](=O)[O-])ccc1N1CCOCC1
i | -0.94 | Cc1ccc(C)c(S(=O)(=O)N2CCN(C(=O)c3ccccc3Cc3ccccc3)CC2)c1
i | 0.07 | CSc1ncccc1C(=O)OCC(=O)Nc1ccc2c(c1)OCO2
i | 0.77 | Cc1ccc(C)c(C(=O)COC(=O)c2cc(Cl)nc3ccccc23)c1
i | 1.74 | O=C1OC(N2C(=O)CC[C@H]2C(=O)NCC2CCCO2)c2ccccc21 (some centres not stated)
i | 0.04 | COc1cccc(OCCNc2cc(N3CCOCC3)ccc2[N+](=O)[O-])c1
i | 1.6 | CN(Cc1ccccc1)Cc1c(O)ccc2ccccc12
i | 1.28 | Cc1ccc(C2C(C#N)=C(N)Oc3cc(N)ccc32)cc1 (configuration not stated)
i | -0.12 | COCCCn1c(-c2ccc(Cl)cc2)n[nH]c1=S
i | -0.06 | Cc1ccc(C(=O)N2CCN(S(C)(=O)=O)C2)cc1
i | 0.68 | COc1cccc(CNC(=O)CCNC(=O)N2CCn3c2nc2ccccc23)c1
i | 2.52 | CCOC(=O)C(NC(C)=O)(Nc1cccc(F)c1)C(F)(F)F (configuration not stated)

Copied from the results shown (5 entries):
KCNQ2 inh | KCNQ2 inh baseline | SMILES
i | 1.6 | CN(Cc1ccccc1)Cc1c(O)ccc2ccccc12
i | 1.28 | Cc1ccc(C2C(C#N)=C(N)Oc3cc(N)ccc32)cc1 (configuration not stated)
i | -0.12 | COCCCn1c(-c2ccc(Cl)cc2)n[nH]c1=S
i | -0.06 | Cc1ccc(C(=O)N2CCN(S(C)(=O)=O)C2)cc1
i | 0.68 | COc1cccc(CNC(=O)CCNC(=O)N2CCn3c2nc2ccccc23)c1

Later entries:
KCNQ2 inh | KCNQ2 inh baseline | SMILES
i | 1.7 | O=c1oc2c(-c3cccc(F)c3)cc(O)cc2s1
i | -0.67 | Cc1ccc(C)c(NC(=O)CC2Oc3ccccc3NC2=O)c1 (configuration not stated)
i | 0.04 | COc1ccc(C(=O)Cn2c(=N)n(C)c3ccccc32)cc1
i | 0.28 | CCOC(=O)CCCCNCc1ccccc1
i | 2.22 | CCOCCCn1cc(C(=O)c2cc(Br)ccc2O)cc(C#N)c1=O
i | -0.19 | CCOc1cc(C)nc(N2CCCC(C(=O)NCc3ccccc3F)C2)n1 (configuration not stated)
i | 1.14 | CC1(C(=O)Nc2ccccc2)Cc2ccccc2C(=O)O1 (configuration not stated)
i | 1.04 | N#Cc1ccc(-c2cccnc2)nc1SCc1ccc(Cl)cc1Cl
i | -0.29 | CCN(c1ccc(NC(=O)CN2C(=O)NC3(CCOc4ccccc43)C2=O)cc1)C(C)C (configuration not stated)
i | -0.73 | Cn1cccc1Cc1nnc(SCC(=O)NCc2ccc3c(c2)OCO3)n1CCc1ccccc1
i | 0.04 | CC(C)(C)c1ncc(S(=O)(=O)c2ccc(C(F)(F)F)cn2)c(N)n1
i | -0.31 | CN1CCN(c2sc(S(C)(=O)=O)nc2S(=O)(=O)c2ccc(Cl)cc2)CC1
i | 0.74 | Cc1ccc(N2C(=O)c3cccc4c([N+](=O)[O-])ccc(c34)C2=O)c2cccnc12
i | -1.5 | S=C(Nc1ccc(Cl)cc1)N1CCOCC1
i | -1.77 | CSc1ccc(/C=N/N2CCN(Cc3ccc(Cl)cc3)CC2)cc1
i | -0.01 | Cn1cc(S(=O)(=O)N2CCCC2)cc1C(=O)NCc1ccc(Cl)cc1
i | 0.71 | O=[n+]1cc(-c2ccc(Br)cc2)n([O-])c2c1CCC2
i | -0.27 | COCc1cc(C)c(C#N)c(=S)[nH]1
i | -0.81 | COc1ccc(CCNc2nc(-c3ccc(O)cc3)cs2)cc1OC
i | 0.57 | O=C(OCCCN=C1NS(=O)(=O)c2ccccc21)C1CC(=O)N(c2ccc(Cl)cc2)C1 (configuration not stated)
i | 0.07 | O=C(CCS(=O)(=O)c1cccs1)Nc1ccc(C(=O)NC2CCN(Cc3ccccc3)CC2)cc1
i | -1.51 | CC(=O)Nc1c(-c2ccccc2)nc2ccc(Cl)cn12
-7.73* | 1.74* | Cc1cc(C)nc(NC(=O)c2cc(-c3ccc4c(c3)OCO4)nc3ccccc23)c1
i | -0.72 | CCCCOc1ccc(C(=O)Nc2ccc3c(c2)C(=O)NC3=O)cc1
i | 0.36 | Cc1cc(C)n2c(Br)c(CSc3nc4ccccc4s3)nc2n1
i | 0.57 | CC1=NNC(=O)C1CCC(=O)N/N=C(\C)c1ccc(Cl)cc1 (configuration not stated)
i | 1.32 | CCOC(=O)CSc1nnc(-c2nnc(SCC(=O)OCC)n2CC)n1CC
i | -2.21 | COc1ccc(CC(=O)Nc2sc3c(c2C(N)=O)CCCC3)cc1OC
i | 0.69 | CC(O)c1cccc(N=Cc2ccc3ccccc3c2O)c1 (configuration not stated)
i | 0.32 | CCN(CC)c1ccc2c(C)c(CO)c(=O)oc2c1

Part of the list above in order of SMILES length, lowest first:
KCNQ2 inh | KCNQ2 inh baseline | SMILES
i | -0.27 | COCc1cc(C)c(C#N)c(=S)[nH]1
i | 0.32 | CCN(CC)c1ccc2c(C)c(CO)c(=O)oc2c1
i | -1.51 | CC(=O)Nc1c(-c2ccccc2)nc2ccc(Cl)cn12
i | 0.36 | Cc1cc(C)n2c(Br)c(CSc3nc4ccccc4s3)nc2n1
-7.73* | 1.74* | Cc1cc(C)nc(NC(=O)c2cc(-c3ccc4c(c3)OCO4)nc3ccccc23)c1

(continued)
KCNQ2 inh | KCNQ2 inh baseline | SMILES
i | -0.97 | COc1ccc(-c2cc(C(=O)Nc3ccccc3O)c3ccccc3n2)cc1
i | 1.38 | O=C1[C@H]2[C@@H](c3ccc(F)cc3)N3C(=O)N(c4ccc(C(F)(F)F)cc4)C(=O)[C@@]3(Cc3ccccc3)[C@H]2C(=O)N1C1CCCCC1
i | 1 | Cc1ccnc(SCCn2c(N3CCOCC3)nc3c2c(=O)[nH]c(=O)n3C)n1
i | 0.32 | CCOC(=O)c1c(C)[nH]c(C(=O)COC(=O)C2CC2C)c1C (configuration not stated)
i | -2.39 | CN(C)CC1CCCCC1OC(=O)/C=C/c1ccc(Cl)cc1Cl (configuration not stated)
i | 0.92 | Cc1cc(C)n(-c2ccc(C(=O)O)cc2[N+](=O)[O-])n1
i | 0.38 | CCN1C(=O)S/C(=C/c2cn(C)c3ccccc23)C1=O
i | -1.21 | Cc1cccc(C(=O)NCC(=O)Nc2ccc(S(=O)(=O)Nc3nc(C)cc(C)n3)cc2)c1
i | -0.84 | O=C(NCc1ccccc1)c1ccc(S(=O)(=O)Nc2cccc(C(F)(F)F)c2)cc1
i | 0.73 | CCOC(=O)c1c(-c2ccccc2)csc1NC(=O)c1ccc(S(=O)(=O)N2CCOCC2)cc1
i | -0.78 | Cc1cc(=O)oc2c(C)c(OC(C)C(=O)Nc3ccc(N4CCC(C)CC4)cc3)ccc12 (configuration not stated)
i | 1.5 | Cc1cc(C)cc(N(CC(=O)NC2CCCC2)C(=O)CCC(=O)Nc2cc(C)ccn2)c1
i | 0.28 | O=C(Nc1ccc(N2CCOCC2)cc1)Nc1cnsn1
i | -0.9 | Cc1ccc(S(=O)(=O)Nc2ccccc2CNc2cccc(C)n2)cc1
i | 0.2 | COc1ccccc1C(=O)OCC(=O)Nc1ccc(OC(F)F)cc1

The list is partial; rates above refer to the full screens.
